Screens: PubChem BioAssay, several laboratories
PABP FP inh: PABP poly(A) RNA binding inhibitors, primary screen, biochemical, fluorescence polarization, uHTS | Polyadenylate-binding protein 1 (Homo sapiens), P11940 | 290,000 tested, 1% active | inhibition, % at 35 µM | AID 2014, 2009;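 active = 50% or more with normal probe brightness, or confirmed in later tests; inconclusive = above 50% with abnormal brightness, or retests that disagree; inactive = below 50% or failed in later tests; about a fifth of its hits are not listed in these tables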;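 also: calls also rest on retests at 20 µM and on dose response follow-up; controls were probe without protein and protein plus probe with vehicle; some compounds called inactive have numbers as strong as hits; many hits fall short of the cut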
Target sequence (P11940 whole entry, looked up): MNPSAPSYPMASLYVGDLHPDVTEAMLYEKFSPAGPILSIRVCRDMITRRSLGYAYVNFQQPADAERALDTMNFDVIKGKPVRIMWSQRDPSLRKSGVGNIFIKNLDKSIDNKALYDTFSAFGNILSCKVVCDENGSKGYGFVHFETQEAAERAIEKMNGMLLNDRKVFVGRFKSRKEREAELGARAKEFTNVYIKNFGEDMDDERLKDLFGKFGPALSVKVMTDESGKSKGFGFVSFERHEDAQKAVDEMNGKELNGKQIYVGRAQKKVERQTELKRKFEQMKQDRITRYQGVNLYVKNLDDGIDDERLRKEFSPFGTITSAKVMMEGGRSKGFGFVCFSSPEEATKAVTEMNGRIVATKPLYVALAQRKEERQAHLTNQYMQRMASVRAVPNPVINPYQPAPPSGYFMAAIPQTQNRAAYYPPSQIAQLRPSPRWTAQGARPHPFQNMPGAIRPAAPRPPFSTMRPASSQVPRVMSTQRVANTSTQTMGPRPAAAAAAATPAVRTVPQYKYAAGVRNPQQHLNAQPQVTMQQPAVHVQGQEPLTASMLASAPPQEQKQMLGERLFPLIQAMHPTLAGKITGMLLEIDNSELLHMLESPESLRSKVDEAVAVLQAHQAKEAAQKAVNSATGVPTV
eIF4H inh: human eIF4H binding inhibitors, primary screen, translation initiation inhibitor project, biochemical, uHTS, fluorescence polarization. Eukaryotic translation initiation factor 4H (Homo sapiens), Q15056. eIF4H fluorescence polarization binding assay. inhibition, % at 35 µM. 290,000 tested, 0.94% active. AID 2012, 2009;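 active = 50% or more with normal probe brightness, or confirmed in later tests; inconclusive = above 50% with abnormal brightness, or retests that disagree; inactive = below 50% or failed in later tests; about a fifth of its hits are not listed in these tables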;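 also: calls also rest on retests at 20 µM and on dose response follow-up; 0% = protein and probe with vehicle and 100% = probe without protein; strong numbers were not always called active; many hits fall short of the cut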
Yeast UUG start: modulators of yeast start codon fidelity, primary screen, whole organism, S. cerevisiae, single point, plate reader. activity score, % at 18.7 µM. AID 602363, 2012. S. cerevisiae UUG-firefly luciferase reporter, luminescence/redox ratio. 350,000 tested, 0.13% active;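 active = replicate mean at a twofold rise or more, about +100% in these data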;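 also: firefly luciferase made from a UUG start codon reports start codon fidelity; reporter light over untreated wells divided by growth signal over untreated wells; some hits fall short of that in this replicate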
MT1-MMP act inh: blockers of MT1-MMP proenzyme processing, primary screen, HT1080 RFP-PRO-GFP cells, GFP/RFP fluorescence | Matrix metalloproteinase-14 (Homo sapiens), P50281 | GFP/RFP ratio fluorescence, overnight; percent of plate control window, DMSO zero | GFP/RFP ratio change, % at 20 µM | 360,000 tested, 0.061% active;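 active = GFP/RFP ratio change of at least 30% with cell ATP level not reduced by more than half and red fluorescence within 50% of control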; also: strong numbers were not always called active
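Read-out: GFP/RFP fluorescence ratio; Test system: RFP-PRO-GFP reporter HT1080 cells; Compound dosing: single-point 20 µM compound, 1% DMSO; Times: overnight compound exposure at 37 °C.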
CSC inhib: cancer stem cell viability inhibitors, primary screen, luminescence | inhibition, % at 7.5 µM | cancer stem cell-like cells viability | 300,000 tested, 1.1% active;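 active = mean at 75% or more and at least half the replicates too; inconclusive = mean and replicates disagree; tested in HMLE shEcad cells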;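 also: 0% = median of negative and 100% = median of positive control wells; the first replicate is given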
Env fusion inh: inhibitors of HIV-1 Env-driven cell-cell fusion, primary screen, HeLa-JRFL effector, CEM21 target cells, luciferase; inhibition, % at 12.3 µM; 360,000 tested, 1.1% active;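 active = mean replicate inhibition score of at least 50 and every replicate individually at or above 50; inconclusive = only one of the two criteria met; inactive = mean below 50 and not all replicates reaching 50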;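 also: 0% = plate neutral controls and 100% = maraviroc near 300 nM; one replicate is shown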
Rce1 inhib: yeast Rce1p protease inhibitors, primary screen, biochemical, fluorescence, cell-free homogeneous; calls only; 290,000 tested, 0.27% active; yeast membranes, quenched prenylated peptide cleavage fluorescence;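 active = fall in fluorescence gain of 50% or more versus controls, with final raw signal at or below 3038400; inconclusive = same 50% fall but final raw signal above 3038400; inactive = fall in fluorescence gain under 50%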;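 also: plate controls were neutral control wells for no effect and wells lacking membranes for full effect; tested at 10 µM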
eIF4H inh retest: recorded beside eIF4H inh, whose call it bears; inhibition, %; compound at 20 µM; confirmation average;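 mean of two retest wells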
PABP FP inh retest: recorded beside PABP FP inh, whose call it bears; inhibition, %; compound at 20 µM; confirmation repeats;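 mean of two retest wells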
MT1-MMP act inh RFP: also measured in MT1-MMP act inh; calls as there; RFP signal change, %; measured here: RFP expression control read;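 0 = vehicle wells; hits needed this value within 50% of zero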
Active calls of the source: *; i = inactive; ? = inconclusive; nt = not tested or not shown; & = joins results of further samples. This is a subset; the hit share may differ from the screen's.

SMILES | PABP FP inh | eIF4H inh | Yeast UUG start | MT1-MMP act inh | MT1-MMP act inh RFP | CSC inhib | Env fusion inh | Rce1 inhib | others
O=C(Cn1cc(C(=O)C(F)(F)F)c2cc(Br)ccc21)N1CCOCC1 | 34 | 4 | -5 | -2 | -2 | nt | 14 | i
O=C(NC1CCCCCC1)c1cc2n(n1)C(C(F)(F)F)CC(c1ccco1)N2 (stereo not given) | 4 | -5 | -7 | 1 | 1 | 27 | nt | i
COC(=O)C1=C(C)NC(=O)NC1c1cccc(OC)c1OCc1ccccc1 (stereo not given) | 7 | 0 | -15 | 5 | 4 | -20 | nt | i
Cc1cc(C)c(C)c(OCc2nc(-c3cccnc3)no2)c1 | -2 | -12 | -8 | 0 | -4 | 18 | -67 | i
CN(CC(=O)Nc1cccc2c1CCCC2)S(=O)(=O)c1ccc(Br)cc1 | 2 | -3 | -16 | 6 | 1 | 2 | 27 | i
Cc1ccc(S(=O)(=O)Nc2ccc3c(c2)CC(=O)N([C@H](C)CO)C[C@H](C)[C@H](CN(C)Cc2ccc4c(c2)OCO4)O3)cc1 | nt | nt | -13&11 | 0 | -4 | 1 | -7 | nt
Cc1ccccc1NCC(=O)c1ccc(Br)cc1 | 13 | -3 | 1 | 6 | 1 | -6 | nt | i
COc1ccc(N2CCN(S(=O)(=O)CCNC(=O)C(C)Oc3ccccc3)CC2)cc1 (stereo not given) | nt | nt | 0 | 4 | -4 | -4 | -32 | i
Cc1ccc(C(C)C)c(O)c1 | nt | nt | -4 | 5 | 0 | -10 | nt | i
CC(C)[C@H](NC(=O)c1ccccc1Cl)C(=O)Nc1ccc(S(=O)(=O)Nc2nccs2)cc1 | nt | nt | 4 | 4 | 2 | 9 | -5 | nt
CC(C)Oc1cccc(-c2cc(C(=O)NC(=S)N(C)c3ccccc3C(=O)O)c3ccccc3n2)c1 | -8 | -1 | nt | -2 | 2 | 4 | nt | i
Cc1nnc(SCC(=O)Nc2cc(S(=O)(=O)N3CCCC3)ccc2Cl)s1 | -1 | -2 | -2 | 1 | -5 | 5 | -4 | i
S=c1[nH]ncn1NCc1cccc(Br)c1 | nt | nt | -15 | 1 | 0 | -3 | 13 | i
CCN(CC(=O)Nc1c(F)cccc1F)C(=O)C1CC(=O)N(CCc2ccc(OC)c(OC)c2)C1 (stereo not given) | nt | nt | 6 | 4 | 2 | nt | -1 | nt
CCOC(=O)c1c(CC(C)C)csc1NC(=O)COC(=O)c1cc(OC)c(OC)cc1[N+](=O)[O-] | -5 | 7 | 4 | 4 | 0 | 3 | 10 | i
COC(=O)c1ccc(NC(=O)C(C)Oc2ccccc2)cc1 (stereo not given) | -8 | 2 | 10 | -10 | -3 | -6 | nt | i
O=C(NCCc1ccc(Cl)cc1)c1ccc(Br)s1 | 0 | 1 | -13 | 0 | 2 | -10 | -43 | i
CC(C)(C)c1cc(CCC(=O)NNC(=S)NC(=O)c2ccccc2)cc(C(C)(C)C)c1O | 1 | 8 | nt | -15 | -32 | 43 | nt | i
N#CC1=C(S)N(c2ccccc2)C2(CCCCC2)NC1=O | 2 | -3 | nt | -2 | 4 | nt | nt | i
COc1ccc(C)cc1NC(=O)c1ccccc1NS(=O)(=O)c1ccc(Cl)s1 | 6 | -6 | -25 | 4 | -30 | ? | 15 | i
COc1ccc(-c2noc(N3CCC(C(=O)Nc4ccccc4OC)CC3)n2)cc1 | -13 | -6 | -1 | -1 | -14 | 8 | 26 | i
CN(C)S(=O)(=O)c1ccc(C(=O)NCc2nnc(SCC(=O)Nc3ccc(F)cc3)n2-c2ccc(F)cc2)cc1 | -4 | -9 | -10 | -4 | -4 | -7 | -22 | i
O=C(NCCN1CCCC1=O)C1CCC(=O)N(CCc2cccc(F)c2)C1 (stereo not given) | 2 | -10 | -13 | -1 | 3 | -22 | -2 | i
CC(Oc1cccnc1[N+](=O)[O-])C(=O)Nc1cccc(Cl)c1 (stereo not given) | nt | nt | 4 | 4 | 10 | -1 | nt | nt
O=C(O)CCCCCNC(=O)c1ccccc1Br | -6 | -4 | -27 | 7 | 6 | -6 | nt | i
O=C(CCNS(=O)(=O)c1ccc2[nH]c(=O)oc2c1)Nc1cccc(Br)c1 | 0 | 11 | 29 | 2 | -2 | -3 | 0 | i
CCCCCn1c(CN2CCN(c3cccc(Cl)c3)CC2)nc2c1c(=O)[nH]c(=O)n2C | -14 | -8 | nt | -13 | -15 | 5 | 22 | i
CC(C)CN(C(=O)COC(=O)CCC(=O)c1ccc(Cl)cc1)c1c(N)n(Cc2ccccc2)c(=O)[nH]c1=O | nt | nt | nt | -1 | 1 | -13 | 0 | i
Cc1cccn2c(=O)nc(SCC(=O)NCc3ccco3)nc12 | nt | nt | -9 | 1 | -5 | -7 | -85 | i
Cn1nc(Cc2n[nH]c(=S)n2C)c2ccccc2c1=O | -12 | 6 | nt | 1 | 0 | -3 | 11 | i
CCCC(=O)Nc1ccc2c(c1)nc(CCN1CCN(c3ccccn3)CC1)n2C | -8 | -2 | -20 | -1 | 3 | 0 | -13 | i
COC(=O)C1=C(O)/C(=C\c2ccc(CNC(=O)C(=O)Nc3ccc(C)c(C)c3)o2)N=C1C | ? | ? | nt | -7 | 4 | 5 | nt | i
COc1ccc(/C=C/C(=O)NC(=S)NNC(=O)Cc2cccs2)cc1 | 5 | 20 | nt | 0 | -7 | 40 | nt | i
COc1ccccc1N1C(=NC(=O)CCc2ccccc2)SC2CS(=O)(=O)CC21 (stereo not given) | 3 | -12 | 0 | 2 | 4 | -3 | 3 | i
O=C(NCCCN1CCCC1=O)c1ccc(Cl)c(S(=O)(=O)N2CCCCC2)c1 | nt | nt | -6 | 5 | -5 | -8 | nt | nt
COc1ccc(NC(=O)CCC(=O)c2ccc(C(C)C)cc2)cc1 | 14 | -11 | 7 | -2 | 2 | -10 | -13 | i
CN(C)c1ccc(/C=N/NC(=O)CCc2c[nH]c3ccccc23)cc1 | 5 | 38 | nt | 0 | 2 | 6 | -4 | i
CN(C)CCCN=Cc1c(O)n(Cc2ccc3c(c2)OCO3)c(=O)c2ccccc12 | -5 | 0 | nt | nt | nt | -3 | nt | i
Cc1ccc(-c2nc(S(=O)(=O)c3ccc(F)cc3)c(SCC(=O)NCC3CCCO3)o2)cc1 (stereo not given) | 2 | -13 | -2 | -5 | -4 | -8 | -14 | i
O=C(Cn1c(=O)c2cccn2c2ccc(F)cc21)NCCCN1CCN(c2ccccc2F)CC1 | -8 | -12 | -12 | 1 | 2 | 1 | 8 | i
c1ccc(SCc2nc3ccccc3[nH]2)cc1 | 5 | -5 | nt | 0 | 1 | 7 | -68 | i
O=C(NC1CCCc2ccccc21)c1cccnc1 (stereo not given) | 8 | 0 | 47 | -4 | -6 | -19 | nt | i
O=C(Cn1cnc2ccccc2c1=O)c1cccs1 | 10 | 4 | -11 | -1 | 2 | -9 | nt | i
O=C(Cn1cnc2ccc(Br)cc2c1=O)c1cccs1 | -2 | -2 | 7 | -2 | -2 | -7 | nt | i
CCOC(=O)/C=C1\SCC(=O)N1CC(=O)NCc1ccc(OC)c(OC)c1 | -4 | 1 | nt | 1 | 6 | -16 | -5 | i
Cc1cccc([C@@H]2[C@@H]3C(=O)N(Cc4ccccc4)C(=O)[C@@H]3[C@]3(Cc4ccc(Cl)cc4)C(=O)N(c4cccc(Cl)c4)C(=O)N23)c1 | nt | nt | -19 | -3 | -5 | -8 | -15 | i
Cc1ccccc1Nc1nc(N)nc(C)c1Br | nt | nt | 10 | 2 | -8 | nt | 21 | nt
COC(=O)c1scc(C#N)c1N/N=C(\C#N)S(=O)(=O)c1ccc(Cl)cc1 | 5 | 0 | -7 | 8 | -23 | 44 | 23 | i
CN1OC[C@@H]2CN[C@H](c3cccc(-c4cc(Cl)cc(Cl)c4)c3)C[C@@H]21 | nt | nt | 0 | 3 | 3 | nt | -4 | nt
O=C(CCn1c(=O)sc2ccccc21)NCc1ccccc1 | -5 | -1 | -1 | 4 | 1 | -8 | -10 | i
O=C(COC(=O)CNC(=O)c1ccccc1Cl)Nc1ccccc1Cl | nt | nt | -22 | 8 | 4 | -8 | -39 | nt
COc1ccc(NC(=O)/C(=C\c2ccc3c(c2)OCO3)NC(C)=O)cc1 | 0 | 11 | -22 | 3 | 3 | -4 | 0 | i
COc1cc2c(cc1OC)C(c1cccs1)N(C(=O)c1cccc(S(=O)(=O)N(C)C)c1)CC2 (stereo not given) | 14 | -3 | nt | -3 | 2 | -3 | 12 | i
CCCCNC(=O)c1ccccc1NC(=O)C1=C(C)OCCS1 | -1 | 4 | -4 | -3 | -2 | 0 | 33 | i
Cc1ccc(Cl)cc1N1CCN(C(=O)CN(c2ccccc2)S(=O)(=O)N(C)C)CC1 | -9 | 62* | nt | -12 | -21 | 7 | 14 | i | eIF4H inh retest=50*;PABP FP inh retest=44
COc1cccc(C=Nc2ccc(C)c(F)c2)c1O | 64 | 4 | -30 | 0 | 8 | -10 | 7 | i | eIF4H inh retest=3;PABP FP inh retest=-3
COCCn1c(=NC(=O)c2cc3ccccc3oc2=O)sc2cc(S(N)(=O)=O)ccc21 | 4 | 9 | -7 | -1 | 1 | -9 | -72 | i
O=C(c1ccc(Cl)cc1)c1cnc(-c2ccccc2)s1 | 1 | 7 | -19 | -8 | 1 | nt | ? | nt
CCC[C@@H](CNC)NC[C@H](Cc1ccccc1)NCCCCc1ccccc1 | 6 | -8 | -8 | 5 | 1 | 133* | -25 | i
CCOC(=O)CCc1c(C)nc(SCC(=O)O)c(C#N)c1C | 5 | 18 | -21 | 2 | 5 | 12 | -205 | i

(listing goes on)
SMILES | PABP FP inh | eIF4H inh | Yeast UUG start | MT1-MMP act inh | MT1-MMP act inh RFP | CSC inhib | Env fusion inh | Rce1 inhib | others
O=[N+]([O-])c1cc(C(F)(F)F)ccc1Oc1cccnc1[N+](=O)[O-] | 2 | -2 | 190* | 6 | 9 | -16 | 32 | i
COc1ccc(/C=C(/NC(=O)c2ccccc2)C(=O)NC2CCS(=O)(=O)C2)cc1 (stereo not given) | 0 | -1 | -8 | 0 | 1 | -15 | 7 | i
CCOc1ccc(/C=N/N(C)c2ccccc2)cc1OC | -7 | -10 | -25 | 4 | -1 | nt | nt | i
COc1ccc(CCNC(=O)C/C(C)=N/NC(=O)C23CC4CC(CC(C4)C2)C3)cc1OC | -8 | -17 | nt | -5 | 2 | 20 | nt | i
Cc1nc2ccc(NC(=O)c3ccc(S(=O)(=O)N(C)c4ccccc4)cc3)cc2s1 | -8 | -13 | nt | -6 | -24 | 10 | 36 | i
COc1ccc(/C=C/CN2CCN(Cc3ccccc3)C(CCO)C2)cc1 (stereo not given) | -10 | -4 | nt | -2 | 3 | 12 | -8 | i
COc1ccc(CCNC(=O)c2cnn(-c3ccc(C)c(C)c3)c2NC(=O)c2ccco2)cc1OC | 3 | -7 | -12 | 0 | -8 | -2 | 5 | i
